AID504770: growth inhibition of E. coli YBA685, primary screen, V. cholerae RctB inhibitors; E. coli YBA685 rctB-dependent plasmid, OD600 growth, 3 h; active compounds read low; 0.27% of 130,000 active; AID 504770, 2011; z-score (test concentration not listed);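 active = z-score under -2 on both plates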;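 also: wells of about 30 µL received 100 nL stock; score is relative to mean and SD of the test wells; the first replicate is given; strong numbers were not always called active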
Ba CapD inh: Bacillus anthracis CapD inhibitors, primary screen, biochemical, fluorescence intensity. CapD gamma-glutamyltranspeptidase (Bacillus anthracis Ames Ancestor). purified CapD enzyme, fluorescence intensity read-out; active compounds read low; some hits fall short of the stated cut. z-score (no concentration beside the values). 0.23% of 140,000 active. AID 492967, 2010;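 active = z-score under -4 in either of two replicates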;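 also: stock transfer was 100 nL into about 40 µL; score is relative to mean and spread of the plate; one replicate is shown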
Active calls of the source: *; nt = no result given. These rows are one share of the data; count on the stated rates, not on these rows.

SMILES	AID504770	Ba CapD inh
COc1cc(CN2CCN(CCOC(=O)NNC(=O)c3ccc4c(c3)OCO4)CC2)cc2c1OCO2	nt	0.335
COc1ccccc1-c1nnc(SCCNc2ncnc3sc4c(c23)CCC4)n1C	1.9	nt
O=C(CSc1nnc2ccccn12)NCC(=O)Nc1ccc(F)cc1	2.5	nt
CC(=O)Oc1ccc2c(c1)CCC1C2CC[C@@]2(C)C1CC[C@@H]2OC(C)=O (some centres undefined)	0.5	-0.305
Cn1c(=O)[nH]c(=O)c2[nH]c(Br)nc21	-0.2	nt
CN1CC(=O)N(CCCC(=O)OCc2c(Cl)cccc2Cl)C1=O	0.15	nt
NS(=O)(=O)c1ccc(-c2ccc(/C=C3\SC(=S)N(Cc4ccccc4)C3=O)o2)cc1	-0.2	36.9
COc1ccc(CN(C)/C(C)=C/C(=O)C(F)(F)F)c(OC)c1OC	0.05	nt
O=C(NC1CCCCNC1=O)OCC#Cc1ccccc1 (centres undefined)	nt	0.665
O=C(CSc1nc2sc3c(c2c(=O)n1Cc1ccco1)CCC3)c1cccs1	0.8	nt
Cc1nn(-c2ccccc2)c2sc(C(=O)N3CC(C)OC(C)C3)cc12 (centres undefined)	-0.75	-0.555
COC(=O)c1ccc2c(=O)[nH]c(COC(=O)CNC(=O)c3cccs3)nc2c1	0.1	nt
O=c1c2ccccc2c2ccccc2c(=O)n1CC1CCCO1 (centres undefined)	-0.6	-0.585
CCc1nn(CC(=O)NCc2ccc(F)cc2)c(=O)c2cc3sc(C)cc3n12	0.2	-0.245
O=C(OCC(=O)c1ccc[nH]1)c1ccccc1	-0.3	nt
Cc1c(C(=O)N2CCN(Cc3ccccc3)CC2)sc2ncn(CC(=O)Nc3cccc(C(F)(F)F)c3)c(=O)c12	nt	-0.805
CCNc1nc(NCC)nc(SCC(=O)c2ccccc2)n1	0.1	0.115
COc1cc(C(F)(F)F)c(-c2ncn[nH]2)cn1	-0.15	-0.255
O=c1cc(CSCc2n[nH]c(=O)[nH]2)c2ccccc2[nH]1	-0.15	nt
CN(C)CCNC(=O)c1cccn(Cc2c(Cl)cccc2Cl)c1=O	nt	71.6

Entries of single compounds, looked up by structure:
`CC(=O)Oc1ccc2c(c1)CCC1C2CC[C@@]2(C)C1CC[C@@H]2OC(C)=O` (some centres undefined) in the list: AID504770: 0.5; Ba CapD inh: -0.305
`COc1cc(C(F)(F)F)c(-c2ncn[nH]2)cn1` in the list: AID504770: -0.15; Ba CapD inh: -0.255

Filtered by structure, the compounds so far with a furan ring, fused or not (two)
SMILES	AID504770	Ba CapD inh
NS(=O)(=O)c1ccc(-c2ccc(/C=C3\SC(=S)N(Cc4ccccc4)C3=O)o2)cc1	-0.2	36.9
O=C(CSc1nc2sc3c(c2c(=O)n1Cc1ccco1)CCC3)c1cccs1	0.8	nt

(cont.)
SMILES	AID504770	Ba CapD inh
Cc1[nH]c(=O)c(C#N)c(C)c1CCC(=O)O	-0.6	nt
COc1cccc(C2CC(c3cccs3)=NN2C(=O)CSc2nnc(CNC(=O)c3ccco3)n2C)c1OC (centres undefined)	nt	5.33
FC(F)Sc1ccc(N=C=S)cc1	-1	nt
CC(C)C1C(C#N)=C(N)Oc2n[nH]c(-c3ccccc3)c21 (centres undefined)	0.15	nt
Cc1csc2c(=O)n3c(nc12)CCCCC3	nt	0.09
Cc1cccc(-n2nc(C)c(C(=O)N3CCc4ccccc43)c2-n2cccc2)c1	-0.7	-0.27
CCOC(=O)c1cc(C#N)c(NCc2cccc(Cl)c2)nc1-c1ccccc1	nt	-0.36
CCn1nc(C)cc1-c1nnc(SCC(=O)c2ccc(C)cc2)o1	0.8	-1.26
NC(=O)Nc1ccc(C(=O)O)cc1	0.5	0.115
CC1(C)CC2CC(C)(CN2C(=O)COC(=O)c2ccc(S(=O)(=O)NCc3ccco3)cc2)C1 (centres undefined)	-1.9	nt
CCOc1ccc(NC(=O)CSc2nnnn2CC(=O)O)cc1	0.25	0.415
O=C(O)c1ccccc1CSc1ccc(C(F)(F)F)cn1	0.5	0.12
Cc1c(C(=O)N2CCC(C(N)=O)(N3CCCCC3)CC2)sc2ncnc(N3CCCCC3C)c12 (centres undefined)	nt	-0.29
COc1ccc(S(=O)(=O)N(CC(=O)Nc2ccccc2C(F)(F)F)c2ccc(Cl)cc2)cc1	nt	-0.065
COc1cc(Br)cc(C=Nc2ccccc2)c1O	-0.55	-1.51
COc1cccc(N/C(SCc2ccc(C)cc2C)=C(/C#N)C(N)=O)c1	nt	-0.205
Fc1cccc(Cl)c1COn1c(-c2ccccc2)nc2ccc(Cl)cc21	nt	-0.025
CC(CC(=O)NN)C1(O)CCCCC1 (centres undefined)	-0.6	0.19
CCCCCCCCc1ccc(C(=O)CCC(=O)O)cc1	nt	-0.67
CC(C)(C)C(=O)CSc1nncc2ccccc12	-1.1	-0.655
NC(=O)c1cc2ccccc2oc1=Nc1ccc(Br)cc1	0.75	0.42
CC(C)c1nnc(NC(=O)c2ccccc2C(F)(F)F)s1	1.85	0.215
CCc1ncc(C(O)c2ccccc2)n1C (centres undefined)	-0.6	0.125
CC(=O)Nc1ccc(Nc2ncnc3c2cnn3Cc2ccc(Cl)cc2)cc1	-0.2	nt
COc1ccc2c(c1OC)C(=O)N(c1ncn[nH]1)C2	-1.1	0.63
Cc1ccccc1-n1c(=O)cc(NCC2CCCO2)[nH]c1=O (centres undefined)	-0.35	0.65
CCN(CC)c1ccc(NC(=O)c2oc3ccc4c(c3c2C)C(=O)CC(C)(C)O4)c(C)c1	0.3	2.88
O=C1Nc2cc3c(cc2Sc2ccccc21)OCCO3	0.85	nt
O=C1c2cccc3cccc(c23)C(=O)N1CC1CCN(CC(O)COCC2COc3ccccc3O2)CC1 (centres undefined)	nt	76.9
CCOc1ccc(Nc2nc(N3CCOCC3)nc(C)c2[N+](=O)[O-])cc1	nt	-1.25
O=C(c1cc2c(Cl)ccc3c2n1CCO3)N1CCN(c2ccccc2F)CC1	0.5	4
CCCCC(=O)OCc1nc(N)nc(Nc2ccccc2C)n1	0.3	nt
COc1ccc(NC2CC(C)Nc3ccc(OC)cc32)cc1 (centres undefined)	-0.1	2.57
CCOc1ccc(NC(=O)CCOc2ccccc2)cc1	-0.9	0.26
O=C1CSC(c2ccc(Cl)cc2)N1O (centres undefined)	-1.15	nt
O=C(COC(=O)/C(=C/c1cccs1)c1cccs1)Nc1ccccc1	0.5	nt
O=C(OCc1c(F)cccc1Cl)N1CCN(c2cccc3[nH]ccc23)CC1	nt	0.835
CN(CC(=O)Nc1ccccc1)CC(=O)Nc1ccc(F)cc1	1.4	nt
COc1ccccc1CNC(=O)C(CCCN(C(=O)OC(C)(C)C)/C(N)=N/C(=O)OC(C)(C)C)NC(=O)OC(C)(C)C (centres undefined)	nt	-0.995
Cc1cccc(CN2CCN(S(=O)(=O)c3cccc(Br)c3)CC2)n1	nt	0.205

A second format for three compounds above.
Structure,AID504770,Ba CapD inh
CCCCC(=O)OCc1nc(N)nc(Nc2ccccc2C)n1,0.3,nt
COc1ccccc1CNC(=O)C(CCCN(C(=O)OC(C)(C)C)/C(N)=N/C(=O)OC(C)(C)C)NC(=O)OC(C)(C)C (centres undefined),nt,-0.995
CCOc1ccc(Nc2nc(N3CCOCC3)nc(C)c2[N+](=O)[O-])cc1,nt,-1.25

(further entries)
SMILES	AID504770	Ba CapD inh
Cc1[nH]c(C)c(S(=O)(=O)N(Cc2ccco2)C2CCCCC2)c1C(=O)N1CCCC1	0	0.06
c1ccc(-c2nc3ccc(-c4ccc5nc(-c6ccccc6)c(-c6ccccc6)nc5c4)cc3nc2-c2ccccc2)cc1	nt	0.01
Cc1snnc1C(=O)Nc1c(C(C)(C)C)nn(C)c1C(C)(C)C	-0.45	-0.38
COc1cc(C(=O)Nc2ccc(S(=O)(=O)N(C3CC3)C3CCN(Cc4ccccc4)CC3)cc2)cc(OC)c1OC	nt	-0.37
Cc1c(CNC(C)C23CC4CC(CC(C4)C2)C3)c(C(=O)O)c(C)n1Cc1ccccc1 (centres undefined)	0.25	0.1
CN1C(=O)C(C)(C)c2cc(S(=O)(=O)N(C)Cc3ccco3)ccc21	0.2	-2.5
COc1cccc(CC(Cc2nc3ccccc3[nH]2)c2nc3ccccc3[nH]2)c1 (centres undefined)	1.6	0.515
N#Cc1ccc(OC(=O)c2cnccn2)cc1	-0.45	nt
CCC(Nc1ccccc1)C(=O)N/N=C/c1cccs1 (centres undefined)	-0.85	-0.54
O=C(COC(=O)CC1SC(N2CCCC2)=NC1=O)Nc1ccc(Br)cc1 (centres undefined)	-0.4	nt
C=C(C)C(=O)OCCOC(=O)C1=C(C)OC(N)=C(C#N)C1c1ccc([N+](=O)[O-])cc1 (centres undefined)	nt	-0.425
CCn1nc(C)cc1/C(N)=N/OC(=O)c1ccc(C(C)(C)C)cc1	-1.15	-0.08
CCc1nn(CC(=O)NCCc2ccc(S(N)(=O)=O)cc2)c(=O)c2cc3occc3n12	-0.55	1.17
O=C1OC(c2cccc(F)c2)=N/C1=C\c1cccc2ccccc12	-0.05	-0.395
Cc1ccc(-c2nc(N3CCC(C(N)=O)(N4CCCCC4)CC3)c3ccccc3n2)cc1	nt	0.395
Cc1ccc(/C=C/C(=O)OC(C)C(=O)c2cccc(Cl)c2)o1 (centres undefined)	-0.45	nt
O=C(Nc1ccc(-n2ccc(C(F)(F)F)n2)cc1)c1cccs1	-0.65	-0.37
CCOC(=O)C1(C)C=C(Nc2ccc(S(N)(=O)=O)cc2)C(=O)N1c1ccccc1 (centres undefined)	nt	6.06
CCCc1cc2c(=O)c(-c3ccc4c(c3)OCO4)c(C)oc2cc1OC(C)=O	1.1	0.585
COc1ccc(CNc2ncnc3c2oc2ccccc23)cc1OC	0.65	nt
CCc1ccccc1N(CC(N)=O)S(=O)(=O)c1ccccc1	0.05	0.46
CCOC(=O)C12CNC(=O)C(C(=O)OCC)(CNC1=O)C2	-0.9	-0.735
CC1SC(c2ccc3c(c2)OCO3)N(c2nc3ccccc3s2)C1=O (centres undefined)	-0.7	-0.17
Cc1nn(Cc2nnc(SCC(=O)c3ccc(Cl)cc3)o2)c(C)c1Br	-0.15	-0.34
N#CCN(CC#N)C(=O)c1ccccc1	-0.45	0.135
COc1cc(NC(C)=O)cc(OC)c1OC	-0.85	-0.125
Nc1nnc(CCN2CCCCC2)s1	0.15	0.25
COc1ccccc1CCC(=O)Nc1ccc2c(c1)OCCCO2	0.1	nt
Cc1ccc(S(=O)(=O)Nc2ccc(C)cc2[N+](=O)[O-])cc1	nt	-0.695
CC(NC(=O)COc1ccccc1)C1COc2ccccc2O1 (centres undefined)	-0.7	-0.305
O=C(CCC(=O)c1ccc(Cl)cc1)OCc1ccc(F)cc1	0.15	-0.685
CC1=NN(C(=O)c2cccc(O)c2)C(O)(c2ccc(Br)cc2)C1 (centres undefined)	nt	-0.865
Cc1ccccc1NC(=O)Cn1c(=O)n(C2CCCC2)c(=O)c2ccccc21	1.2	0.145
COCCn1c(SC(C(=O)NCc2ccccc2)C(=O)NCc2ccccc2)nc2cc(C(=O)OC)ccc2c1=O	nt	-0.895
CC1=NN(c2ccccc2)C(=O)C1C(=O)c1ccccc1 (centres undefined)	nt	-1.44
O=C(O)c1ccc(C2SCC(=O)N2Cc2ccccc2)cc1 (centres undefined)	-0.7	0.205
Cc1nc2sccn2c(=O)c1S(=O)(=O)N1CCC2(CC1)OCCO2	-0.05	9.8
CCCCCCc1cc2cc(-c3csc(Nc4ccc(Cl)cc4Cl)n3)c(=O)oc2cc1O	nt	0.215
COc1cc(-c2nc(C=Nc3ccc(C)c(Cl)c3)c(O)o2)cc(OC)c1OC	nt	-0.26
Cn1nc(-c2ccccc2)c(C(=O)Nc2ccc(C(F)(F)F)cc2)c1Cl	nt	-0.605

3 entries from above, sorted by count of non-hydrogen atoms, ascending:
SMILES	AID504770	Ba CapD inh
COc1cc(C(F)(F)F)c(-c2ncn[nH]2)cn1	-0.15	-0.255
COc1cccc(CC(Cc2nc3ccccc3[nH]2)c2nc3ccccc3[nH]2)c1 (centres undefined)	1.6	0.515
Cc1c(C(=O)N2CCC(C(N)=O)(N3CCCCC3)CC2)sc2ncnc(N3CCCCC3C)c12 (centres undefined)	nt	-0.29

Screening data from PubChem BioAssay.
